RanGTP-Impb inh – inhibitors of RanGTP-importin-beta interaction, primary screen, biochemical, FRET, CFP-Ran, YFP-importin-beta, homogeneous; cell-free CFP-Ran/YFP-importin-beta FRET ratio; inhibition, % (concentration not given with the values); hit rate 1.1% among 300,000;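 active = most replicates above 15%; inconclusive = exactly half above 15%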;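 note: 0% = DMSO wells and 100% = Ran loaded with GDP instead of GTP; wells of about 40 µL received 100 nL stock; the first replicate is given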
Calb FLC – affects C. albicans growth with fluconazole; C. albicans CaCi-2 (fluconazole-resistant clinical isolate) + fluconazole, Alamar Blue growth, 48 h; growth inhibition, % (no concentration beside the values); hit rate 0.57% among 300,000;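 active = most replicates above 75%; inconclusive = exactly half above 75%; inactive = most below 75%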;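 note: all wells also contain fluconazole at 8 µg/ml as a sub-toxic cotreatment; 0% = median of DMSO wells and 100% = median of geldanamycin control wells; wells of about 8 µL received 7.5 nL stock; the first replicate is given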
AF4-AF9 inh – blocks AF4 peptide binding to human AF9 | inhibition, % at 10 µM | hit rate 0.47% among 350,000 | AID 651704 | AlphaScreen, biotin-AF4 peptide binding to FLAG-AF9 | P42568;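 active = every replicate reaching a set inhibition limit, whatever the replicate mean, cut at about 25% in these data; inconclusive = mean inhibition reaches that limit but some replicates miss it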;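 note: 0% = plate neutral control median and 100% = total signal loss; the record names both 10 and 1 µM as test concentration; the first replicate is given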
Beta cell apopt – blocks beta cell apoptosis; INS-1E cytokine-induced death, ATP luminescence, 48 h; percent of positive-control rescue, neutral wells zero; protection from apoptosis, % (concentration not given with the values); hit rate 0.8% among 300,000;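 active = all replicates at 75% or more, or half of them and the mean; inconclusive = half reach 75% but not the mean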;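 note: 0% = cytokine-treated negative control wells and 100% = positive control rescue; higher means more ATP so stronger rescue from cytokine killing; wells of about 40 µL received 100 nL stock; the first replicate is given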
Vif A3G – inhibitors of Vif binding to APOBEC3G peptide, primary screen, biochemical, TR-FRET, GST-Vif 1-94, biotin-A3G peptide, dose response retest (AID 1117319); inhibition, %, or IC50 in µM where a hit was titrated; TR-FRET GST-Vif / biotin-A3G peptide binding; higher % means a stronger effect; test concentration not given here; strong numbers were not always called active; hit rate 0.57% among 260,000;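 active = above the screen mean plus three standard deviations and confirmed in dose response; inconclusive = results disagree or hit not tested in dose response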;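 note: Vif residues 1-94 fused to GST binding biotinylated APOBEC3G peptide 110-148; 0% = full assay without inhibitor and 100% = GST in place of GST-Vif; retest series ran down from 100 µM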
A1 inh – inhibitors of the anti-apoptotic protein A1, read as caspase activation | caspase activation, % (concentration not given with the values) | AID 2462 | hit rate 0.066% among 330,000 | MEF A1-2A-BIM cells, Caspase-Glo 3/7 luminescence, 3 h; percent of clofoctol response, vehicle zero;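 active = over half of replicate activation scores above 10%, or exactly half above 10 with the replicate mean above 10; inconclusive = replicate mean below 10 yet half the replicates above 10; inactive = over half of replicates below 10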;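 note: wells of about 30 µL received 50 nL stock; many hits fall short of the cut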
LANA-H2B inh – blocks KSHV LANA binding to histone H2A/H2B; Q9QR71; cell-free LANA-H2A/H2B peptide, fluorescence polarization; inhibition, % (concentration not given with the values); hit rate 0.6% among 320,000; AID 2629; in the data active = inhibition mostly above about 10%, no sharp cut-off; inactive = mostly below about 6.7%;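 note: stock transfer was 7.5 nL into about 10 µL; 0% = median of vehicle wells and 100% = median of positive control wells; one replicate is shown; the record names a cut of 25% in any replicate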
Target sequence (Q9QR71 whole entry, looked up): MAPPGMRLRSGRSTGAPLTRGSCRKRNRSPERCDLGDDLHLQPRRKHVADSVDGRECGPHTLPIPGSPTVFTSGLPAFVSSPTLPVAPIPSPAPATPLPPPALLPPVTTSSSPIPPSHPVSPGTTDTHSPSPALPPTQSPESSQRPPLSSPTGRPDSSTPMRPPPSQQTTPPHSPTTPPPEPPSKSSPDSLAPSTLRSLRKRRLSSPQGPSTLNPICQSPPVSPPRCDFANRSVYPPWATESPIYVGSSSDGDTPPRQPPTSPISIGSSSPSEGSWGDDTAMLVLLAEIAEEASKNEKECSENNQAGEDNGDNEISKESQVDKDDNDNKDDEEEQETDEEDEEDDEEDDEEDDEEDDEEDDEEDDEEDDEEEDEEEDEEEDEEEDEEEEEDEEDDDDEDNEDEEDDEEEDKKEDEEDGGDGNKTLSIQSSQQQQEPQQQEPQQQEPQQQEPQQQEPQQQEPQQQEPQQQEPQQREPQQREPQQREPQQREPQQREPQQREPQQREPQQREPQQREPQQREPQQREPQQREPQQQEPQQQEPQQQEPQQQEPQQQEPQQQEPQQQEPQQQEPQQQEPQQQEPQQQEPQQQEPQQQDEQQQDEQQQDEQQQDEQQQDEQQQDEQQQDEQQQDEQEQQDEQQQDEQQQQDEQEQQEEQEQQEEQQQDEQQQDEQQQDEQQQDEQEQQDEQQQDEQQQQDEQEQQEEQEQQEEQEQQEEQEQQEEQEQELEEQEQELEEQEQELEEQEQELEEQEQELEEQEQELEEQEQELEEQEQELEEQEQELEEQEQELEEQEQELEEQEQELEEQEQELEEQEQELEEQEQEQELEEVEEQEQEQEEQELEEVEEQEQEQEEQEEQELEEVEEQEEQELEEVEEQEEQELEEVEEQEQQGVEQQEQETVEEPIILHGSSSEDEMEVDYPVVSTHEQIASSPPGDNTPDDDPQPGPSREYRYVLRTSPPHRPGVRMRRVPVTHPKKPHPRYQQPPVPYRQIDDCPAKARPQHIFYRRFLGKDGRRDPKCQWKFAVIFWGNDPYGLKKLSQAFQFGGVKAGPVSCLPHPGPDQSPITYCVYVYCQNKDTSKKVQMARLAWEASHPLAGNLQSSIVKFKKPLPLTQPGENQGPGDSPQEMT
T cruzi repl – blocks replication of Trypanosoma cruzi. T. cruzi beta-gal in NIH3T3, luminescence, 90 h. inhibition, % (test concentration not listed). hit rate 1.4% among 300,000;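 active = mean inhibition across valid replicates above about 55%, limit read from the data; inconclusive = mean below that limit but half or more replicates reach it; inactive = mean below it, under half of replicates reach it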;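 note: signal also drops with host cell toxicity which is not excluded here; 0% = plate median of DMSO wells and 100% = zero luminescence signal; higher percent means less beta-gal luminescence so fewer parasites; stock transfer was 50 nL into about 50 µL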
Starred values were filed as active, the others as inactive; u = inconclusive; x = not tested or not shown; & = joins results of further samples.

SMILES	RanGTP-Impb inh	Calb FLC	AF4-AF9 inh	Beta cell apopt	Vif A3G	A1 inh	LANA-H2B inh	T cruzi repl
COc1nc(N/N=C/c2ccc(-c3cccc([N+](=O)[O-])c3)o2)nc(N2CCOCC2)n1	-1.8	1	x	x	14%	x	x	18
CC(=O)N1CC=CC1(CC(C)C)C(=O)NCc1cc(F)cc(C(F)(F)F)c1 (stereo not given)	u	-7	-6.7	-2	4%	0.1	-0.9	1
COc1ccc(NC(=O)CN2CCN(C(=S)NC3CCCC3)CC2)cc1	-1.2	-6	-2.7	-3	2%	0.0	-1.8	-25
CC1CCCCN1CC(O)COCCC12CC3CC(CC(C3)C1)C2 (stereo not given)	-2.1	30	3.2	11	13%	0.4	-3.3	47
CC12CCC(=O)C=C1CCC1C2C(O)CC2(C)C1CCC2(O)C(=O)CO (stereo not given)	1.2	x	-4.3	-5	x	0.6	3.2	0
O=C(Cn1cc(Br)ccc1=O)Nc1ccc2c(c1)OCO2	x	x	2.9	-2	-7%	1.2	1.6	x
O=C(CCN1CCN(Cc2ccccc2)CC1)NNC(=O)Nc1cccc(Cl)c1	3.1	-5	2.0	-5	x	0.9	1.0	4
CCOC(=O)c1c(NC(=O)c2cccnc2)sc(C)c1C	0.2	23	x	8	15%	0.4	3.1	0
CCCCN(CCCC)CCNC(=O)Cc1nc2c(c(=O)[nH]c(=O)n2C)n1C	4.8	9	x	x	-7%	x	x	-10
Cc1ccc(NC(=S)N2CCCC(c3nc4ccc(C)cc4[nH]3)C2)c(C)c1 (stereo not given)	6.4	4	x	0	-4%	0.8	-4.0	15
CC(=O)Nc1ccc(NC(=O)CN(C)CC(=O)Nc2ccccc2Br)cc1	1.2	-8	-1.0	-3	-8%	-0.4	-2.9	-4
O=C(COC(=O)c1cccnc1)Nc1cccc2ccccc12	0.3	3	-15	-2	x	0.8	-1.2	-12
O=C(Cn1cnc2ccccc2c1=O)NNC(=O)c1cccc([N+](=O)[O-])c1	x	x	-1.6	-4	18%	-1.1	1.2	x
COCCN(C(=O)CCC(=O)Nc1nccs1)C(C(=O)NC(C)(C)C)c1ccc(C)cc1 (stereo not given)	0.6	2	-6.2	-7	x	0.1	2.9	-4
O=S(=O)(/N=C(/Nc1ccccn1)c1ccc(Cl)cc1)c1ccc(Cl)cc1	-3.3	1	x	-5	4%	-0.9	-1.5	-5
CC(C)N(CCCNC(=O)Cn1c(=O)c2cccn2c2ccccc21)Cc1ccccc1	-1.2	-27	0.5	-3	2%	-0.3	-2.9	21
COc1ccc(NS(=O)(=O)c2cc3c(cc2C)N(C)CCO3)c(OC)c1	1.5	-1	4.8	-4	x	0.2	10	-17
Cc1cc(=O)n(-c2ccc(C(=O)O)cc2)[nH]1	-3.6	-2	-0.9	3	5%	0.5	3.5	-1
CCOC(=O)C1CCN(S(=O)(=O)c2ccc(NC(C)=O)c(Cl)c2)CC1	-2.0	-7	-1.8	x	0%	0.5	0.6	-8
COc1ccccc1NC(CC(=O)c1ccccc1)C(=O)OCC(=O)c1ccc(C)c(C)c1 (stereo not given)	5.6	11	2.4	-13	21%	-0.7	1.7	-1
N#C/C(=C(/O)c1ccc(Br)s1)c1nc2ccccc2[nH]1	4.9	8	-2.7	38	x	-2.9	1.8	-41
CC1CN(C(=O)c2cccc(C(=O)N3CC(C)OC(C)C3)c2)CC(C)O1 (stereo not given)	2.9	4	x	-2	-2%	-0.1	-3.4	x
Cc1sc(NC(=O)C2=COCCO2)nc1-c1ccc(F)cc1	5.7	-33	0.8	x	-13%	-0.3	-1.9	6
COc1ccc(NC(=O)c2ccccc2NC(=O)CN2CCCCCC2)cc1	x	x	28*	-4	x	0.1	2.4	x
COC(=O)c1c(NC(=S)NN2CCOCC2)sc2c1CCCC2	u	u	0.5	-1	-3%	-0.3	4.0	28
COc1cc(/C=N/N2CCN(C3c4ccccc4-c4ccccc43)CC2)cc(OC)c1OC	4.3	-1	10	6	x	-0.1	-0.9	4
O=Nc1c2ccc[nH]c-2c2ccc([N+](=O)[O-])cc12	5.7	-12	1.0	13	-5%	-0.5	0.8	-11
COc1cc(NC(=O)Cn2cnc(S(=O)(=O)N3CCOCC3)c2)cc(OC)c1OC	-0.7	-1	-4.6	-4	u	0.1	-7.6	-2
CCc1c(C)[nH]c2ccc(C)cc2c1=O	5.4	-12	x	-5	2%	2.5	5.3	4
CCO[C@H]1OC(C(=O)N2CCCCCCC2)=C[C@@H](c2ccc(C(F)(F)F)cc2)[C@@H]1CCCO	4.1	13	-3.0	5	-9%	-1.5	-1.3	30
CCOc1ccc(C(=O)CCNC(Cc2cnc[nH]2)C(=O)O)cc1 (stereo not given)	6.4	-4	6.4	x	-8%	-0.4	1.8	11
Cc1ccc(CNC(=O)CN(c2ccc(C)cc2)S(=O)(=O)c2c(C)nn(C)c2C)cc1	-1.8	9	0.0	12	-3%	0.2	6.1	12
COc1cc(OC)cc(C(=O)N[C@H](C(=O)Nc2ccc(S(=O)(=O)N(C)C)cc2)C(C)C)c1	1.7	-3	0.4	5	-10%	0.2	-4.0	7
COc1cc(OC)cc(C(=O)NCCNC(=O)c2ccco2)c1	5.5	-4	x	-2	3%	0.1	0.8	-13
O=C(CCC1CCN(C(=O)Cc2c(F)cccc2F)CC1)NC1CC1	1.7	17	1.4	-4	x	-2.3	-3.6	-8
O=C(CNC(=O)c1ccc(Oc2ccccc2)cc1)OCc1ccc(Br)cc1	3.3	-10	2.2	1	-1%	-0.5	3.7	-25
CCn1c2ccccc2c2nnc(SCC(=O)Nc3cc(C)on3)nc21	-1.3	3	x	1	-6%	0.0	4.5	-14
C=CCNC(=O)C1CC(=O)N(c2ccc(OCC(=O)Nc3ccc(Cl)cc3)cc2)C1 (stereo not given)	1.3	3	-6.1	x	x	0.2	9.4	-3
CN(C(=O)COC(=O)/C=C/c1cn(-c2ccccc2)nc1-c1ccc2c(c1)OCCO2)C1CCS(=O)(=O)C1 (stereo not given)	-1.8	22	3.3	3	-10%	-0.3	-0.4	17
CCOc1ccc(CNC(=S)Nc2ccccc2)cc1Cl	u	-75	4.1	-2	x	-0.1	-7.2	-35
COc1ccc(-n2nnnc2SCC(=O)c2ccc3c(c2)OCCO3)cc1	-1.8	-2	x	-1	-135%	0.2	0.0	7
Cc1cc(C(=O)N2CCN(c3ncccc3C#N)CC2)no1	2.2	-4	-2.3	-6	10%	0.3	-0.8	7
COc1ccc(/C=C/C2=CC(C)(C)NC(=S)N2)cc1	5.3	18	-0.3	-5	8%	-0.6	3.9	-26
CC1=CC(c2ccccc2)n2nc(N)nc2N1 (stereo not given)	3.2	-6	x	3	x	0.6	-2.8	0
CC(C(=O)O)c1ccc(N2Cc3ccccc3C2=O)cc1 (stereo not given)	3.0	x	-2.6&-3.1	6	-1%	-7.0	-6.1	-13
C=C1C(C(=O)Nc2cccc(OC)c2)C1C(=O)Nc1cccc(OC)c1 (stereo not given)	11	-10	-1.0	0	12%	0.5	-2.3	5
CCCCc1nc2cc(C(=O)N3CCCCC3COC)ccc2o1 (stereo not given)	-1.7	3	-1.9	-5	x	0.8	-0.8	2
Cc1cc(C(F)(F)F)nn1Cc1n[nH]c(=S)n1-c1ccc(Cl)cc1	1.9	u	x	-8	-2%	0.1	-0.6	-11
Cc1cccc(CSc2nc3nc(C)cc(C)n3n2)c1	-0.5	7	-0.5	0	x	1.2	0.3	-1
CCC(C(=O)Nc1nc(C)c(C(=O)OC)s1)c1ccccc1 (stereo not given)	1.1	-1	-1.9	5	-2%	-0.4	-6.8	22

(next part)
SMILES	RanGTP-Impb inh	Calb FLC	AF4-AF9 inh	Beta cell apopt	Vif A3G	A1 inh	LANA-H2B inh	T cruzi repl
CCc1ccc(-c2csc(NC(=O)Oc3ccccc3)n2)cc1	-0.6	-8	3.6	-6	4%	-0.5	-4.3	-19
COc1c(C(=O)NNC(=O)c2ccccc2)csc1Br	-3.3	12	5.9	-3	7%	-2.6	1.0	-26
COc1ccc(C2NC(=S)NC(O)(C(F)(F)F)C2C(=O)c2cccs2)cc1 (stereo not given)	2.4	0	x	0	28%	0.6	2.4	-16
Cc1ccccc1N(CC(=O)NC(C)(C)C)C(=O)CS(=O)CC(=O)Nc1ccc2c(c1)OCO2 (stereo not given)	2.2	-7	-4.3	6	-4%	0.6	-2.6	2
CN(c1ccccc1C(=O)Nc1cccnc1)S(C)(=O)=O	x	-20	x	10	4%	2.0	8.0	-5
O=C(CCCc1ccccc1)NCc1ccc(F)cc1	1.0	-19	1.0	2	4%	0.2	4.0	-2
O=C(NCN1CCOCC1)c1cnccn1	-4.0	-2	1.2	-1	x	-0.7	-7.0	-17
CC(C(=O)NC1(C#N)CCCCC1)N(C)CC(=O)Nc1ccc(Cl)c(Cl)c1 (stereo not given)	x	x	2.2	13	-1%	0.3	5.7	x
Cn1c(=O)n(C)c2cc(/C=N/NC(N)=S)ccc21	u	-9	-1.9	1	2%	-0.6	1.5	-8
CCC1(c2ccc(F)cc2)NC(=O)N(CC(=O)Nc2ccccc2Cl)C1=O (stereo not given)	4.8	1	0.2	-6	x	-1.7	-2.7	-8
CC(C)NC(=S)N1CCN(S(=O)(=O)c2cccc(C(F)(F)F)c2)CC1	3.4	-33	x	x	-3%	-1.1	-1.7	-8
COC(=O)c1cc2occc2n1Cc1cccc(C)c1	6.0	-8	-1.6	0	x	0.6	3.3	5
C=CCn1c(SCC(=O)c2c(N)n(C)c(=O)n(C)c2=O)nc2sc(C)c(C)c2c1=O	6.2	9	x	1	u	0.4	111*	30
O=C1N=C(N2CCN(c3ccccc3)CC2)S/C1=C\c1cn[nH]c1-c1ccccc1	-4.2	14	2.3	0	x	-0.5	8.6	19
COc1ccc(CN2CC(=O)N(c3ccc(C)cc3)C2=S)cc1OC	8.1	26	x	4	-2%	1.0	-3.2	-9
CCOc1ccc(NC(=O)CN(C)C(=O)c2cccnc2Sc2ccc(C)c(C)c2)cc1OCC	5.3	9	-11	x	-3%	-0.7	-3.6	14
CCOC(=O)CC1COc2ccccc2N1C(=O)c1ccc(F)cc1 (stereo not given)	-3.5	-4	1.2	-1	4%	0.2	-3.2	0
CCOC(=O)CNc1c(-c2ccc(Cl)cc2)nc2cnccn12	33*	-13	x	x	-3%	0.0	-3.6	14
O=[N+]([O-])c1ccc(Cl)c(S(=O)(=O)Nc2cccc(-c3ccc(N4CCOCC4)nn3)c2)c1	5.5	17	-1.4	-2	-2%	-9.3	0.5	9
COc1ccc(CCn2c(S)nc3ccccc3c2=O)cc1	3.2	-9	-0.1	12	-25%	0.4	0.4	-4
O=C(CCCN1C(=O)c2ccccc2C1=O)Nc1ccccc1C(=O)N1CCOCC1	x	-17	x	-7	0%	-0.3	-0.8	x

Part of the list above, limited to Vif A3G and RanGTP-Impb inh.
| SMILES | Vif A3G | RanGTP-Impb inh |
| --- | --- | --- |
| CC(C(=O)O)c1ccc(N2Cc3ccccc3C2=O)cc1 (stereo not given) | -1% | 3.0 |
| CCOC(=O)CC1COc2ccccc2N1C(=O)c1ccc(F)cc1 (stereo not given) | 4% | -3.5 |
